SARS PLP yeast = SARS-CoV PLP inhibition in yeast. S. cerevisiae expressing SARS-CoV PLpro, growth rescue; control for the full effect not named in the record. Potency, µM (top dose mostly 32.9 µM), inactives show top-dose activity, positive = growth rescue. actives 0.19% (n = 330,000). AID 485353; further: 0% is about no effect; nearly all actives have a fitted effect of over 55% in size; growth read by luminescence after 48 h
Cruzain inh Det = cruzain (T. cruzi) inhibition with detergent | P25779 | purified cruzain, Z-FR-AMC fluorescence, 0.01% Triton | Potency, µM, for the others: max response, negative = inhibition, actives largely listed as inhibitors | actives 0.43% (n = 200,000); active means well fitted curve in the direction sought with a large enough effect; inconclusive means small, poorly fitted or top-dose-only effect, or another doubt; inactive means no such curve, though single readings can be large; an effect the other way counts as inactive or inconclusive;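 further: plate controls were neutral wells for no effect and buffer without enzyme for full effect; nearly all actives have a fitted effect of over 40% in size; top concentration of the series not given in the record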
Target sequence (P25779 123-467 limits assumed): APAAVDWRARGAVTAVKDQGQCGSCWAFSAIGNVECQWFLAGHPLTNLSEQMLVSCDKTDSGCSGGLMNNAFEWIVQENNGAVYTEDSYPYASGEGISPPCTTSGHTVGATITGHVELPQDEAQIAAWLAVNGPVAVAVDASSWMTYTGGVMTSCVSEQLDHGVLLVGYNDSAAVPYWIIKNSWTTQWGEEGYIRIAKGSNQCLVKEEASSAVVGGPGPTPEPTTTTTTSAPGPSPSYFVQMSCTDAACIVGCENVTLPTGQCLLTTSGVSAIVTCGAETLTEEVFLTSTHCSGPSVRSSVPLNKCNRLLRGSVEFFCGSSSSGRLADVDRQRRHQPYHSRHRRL
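Sodium acetate buffer (100 mM, pH 5.5) containing 5 mM DTT and 0.01% Triton X-100 hosted 1.5 nM cruzain and test compound for 15 min at room temperature. Cleavage of 2 uM Z-FR-AMC was then tracked by fluorescence.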
MARV entry inh = inhibitors of Marburg virus binding or cell entry; Potency, µM (doses to about 37.8 µM), for the others: at the top dose activity change, negative = inhibition, actives largely listed as inhibitors; actives 1.8% (n = 300,000); Marburg virus pseudotyped entry inhibition, cell reporter; control for the full effect not named in the record; about a third of the inactives were read at about 46 µM; active = well fitted inhibition curve with a large enough effect; inconclusive = small, poorly fitted or top-dose-only effect, or effect the other way; inactive = flat fitted curve, though single readings scatter; tested in HEK293 cells; about a fifth of its hits are not listed in these tables; further: on the % scale 0 is the no-effect control and ±100 the full control effect; luciferase read-out
Cruzain inh noDet = inhibitors of Trypanosoma cruzi cruzain without detergent. purified cruzain, Z-FR-AMC fluorescence, no detergent. actives 2.3% (n = 200,000). AID 1476. P25779. Potency, µM, for inactives: max response, negative = inhibition, most hits filed as inhibitors; active means well fitted curve in the direction sought with a large enough effect; inconclusive means small, poorly fitted or top-dose-only effect, or another doubt; inactive means no such curve, though single readings can be large; an effect the other way counts as inactive or inconclusive;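 further: plate controls were enzyme without inhibitor for no effect and buffer without enzyme for full effect; nearly all actives have a fitted effect of over 40% in size; top concentration of the series not given in the record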
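Purified cruzain at 1.5 nM, pre-incubated 15 min with compound at room temperature in 100 mM sodium acetate pH 5.5, 5 mM DTT, 0.00005% Triton X-100. Reaction started with 2 uM Z-FR-AMC; AMC fluorescence increase over 60 s gives rate.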
StopGo reporter = lowers the luciferase signal of an FMDV 2A StopGo reporter. human cells with a luciferase reporter of 2A StopGo recoding; control for the full effect not named in the record. Potency, µM (highest dose often 57.9 µM), without a hit: top-dose signal change, negative = less light. actives 1.2% (n = 410,000). AID 1159524; active = well fitted falling curve with a large enough effect; inconclusive = small, poorly fitted or top-dose-only effect; inactive = no such curve, though single readings can be large or run the other way; tested in HEK293T cells; further: on the % scale 0 is the no-effect control and ±100 the full control effect; nearly all actives have a fitted effect of over 45% in size; luciferase light after 4 h
RE007 growth inh = less growth of the S. pombe RE007 Vpr strain; AID 651644; S. pombe RE007 Vpr strain, BacTiter-Glo ATP luminescence, 24 h; control for the full effect not named in the record; actives 0.21% (n = 360,000); Potency, µM (top dose mostly 92.2 µM), inactives show at the highest dose activity change, negative = less growth; active = well fitted falling curve with a large enough effect; inconclusive = small, poorly fitted or top-dose-only effect; inactive = no such curve, though single readings can be large or run the other way;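 further: on the % scale 0 is the no-effect control and ±100 the full control effect; nearly all actives have a fitted effect of over 50% in size; the assay follows cell death caused by Vpr and the record does not say whether a fall means rescue or toxicity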
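Fission yeast RE007 carrying one integrated HIV-1 vpr copy, seeded at OD 0.01 in PMG+AL medium with 23 nL pinned compound. Grown 24 h at 30 degrees; viability read by BacTiter-Glo luminescence after 5 min.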
LASV entry inh = blocks Lassa virus binding to or entry into cells; Lassa virus pseudotype entry inhibition, cell reporter; control for the full effect not named in the record; Potency, µM (top dose mostly 37.9 µM), for the others: at the top dose activity change, negative = inhibition, hits mostly inhibitors; actives 1.2% (n = 300,000); active means well fitted inhibition curve with a large enough effect; inconclusive means small, poorly fitted or top-dose-only effect, or effect the other way; inactive means flat fitted curve, though single readings scatter; tested in HEK293 cells; further: on the % scale 0 is the no-effect control and ±100 the full control effect; nearly all actives have a fitted effect of over 50% in size; luciferase read-out
NS1 function inh = blocks influenza NS1 protein function. Potency, µM (titrated, usually from 46.1 µM), for the others: top-dose activity, positive = more growth. AID 2326. S. cerevisiae slowed by influenza A NS1, growth recovery by OD600. actives 0.4% (n = 270,000); further: actives are rising curves; nearly all actives have a fitted effect of over 50% in size
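Recovery from NS1-induced slow growth read by OD600 in budding yeast switched to galactose assay medium (pH 6.0, -URA) at 1:100 dilution. Compound 23 nl per well; the matching strain lacking NS1 serves as control.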
Numbers without * were called inactive; [ ] = another dose, or the depositor's remark. Unless noted, the call rests on the fitted dose curve; in most records, active means well fitted rising curve with a large enough effect; inconclusive means small, poorly fitted or top-dose-only effect; inactive means no such curve, though single readings can be large or run the other way. Potency means the concentration at half of the fitted maximal effect.

Start of the listing, in advance, 2 compounds:
`CC(C)(C)C(Cn1ccnc1)NC(=O)c1ccc2nc(C3CC3)oc2c1` (stereo not given) gave SARS PLP yeast 0%, MARV entry inh 7%, StopGo reporter 34%[activator], RE007 growth inh -14%, LASV entry inh 4% and NS1 function inh -3%.
Screening Cc1cc(NC(=O)CSc2nccn2-c2cccc(F)c2)no1 returned SARS PLP yeast 2%, MARV entry inh 4%, StopGo reporter -10%, RE007 growth inh 2% and LASV entry inh -13%[46.1 µM].

The list itself, previewed entries included:
`CC(C)(C)C(Cn1ccnc1)NC(=O)c1ccc2nc(C3CC3)oc2c1` (stereo not given) gave SARS PLP yeast 0%, MARV entry inh 7%, StopGo reporter 34%[activator], RE007 growth inh -14%, LASV entry inh 4% and NS1 function inh -3%.
Screening Cc1cc(NC(=O)CSc2nccn2-c2cccc(F)c2)no1 returned SARS PLP yeast 2%, MARV entry inh 4%, StopGo reporter -10%, RE007 growth inh 2% and LASV entry inh -13%[46.1 µM].
For O=C(O)c1ccccc1C(=O)NCc1c(Cl)cccc1Sc1ccc(Cl)cc1 the results were SARS PLP yeast 0%, MARV entry inh 0%[46.1 µM], StopGo reporter -9%, RE007 growth inh -10%, LASV entry inh 11%[46.1 µM] and NS1 function inh 6%.
For CCn1c(SCC(=O)NC2=NCCS2)nnc1C(C)NC(=O)c1ccccc1Br (stereo not given) the results were SARS PLP yeast 0%, MARV entry inh 3%[46.1 µM], StopGo reporter -15%, RE007 growth inh -14%, LASV entry inh 10%[46.1 µM] and NS1 function inh 7%.
Screening CC(C)c1nnc(NC(=O)CCC(=O)NC2CCCc3ccccc32)s1 (stereo not given) returned SARS PLP yeast -13%, Cruzain inh Det 0.0%, MARV entry inh inconclusive, Cruzain inh noDet 3%, StopGo reporter 5%, RE007 growth inh -26%, LASV entry inh -6% and NS1 function inh -3%.
For CCCCCn1c(=O)[nH]c2cc(C(=O)NC(C)CC)ccc2c1=O (stereo not given) the results were Cruzain inh Det 0.8%, MARV entry inh 6%[46.1 µM], Cruzain inh noDet -3%, StopGo reporter -3% and LASV entry inh 14%[46.1 µM].
C[C@H](NC(=O)CCCOc1ccc(Cl)cc1Cl)c1nnc2ccccn12 was read as SARS PLP yeast -4%, StopGo reporter -12%, RE007 growth inh -3% and NS1 function inh -9%.
`Cc1ccc2c(c1)N(CC(=O)NCc1cccnc1)C(=O)CO2` gave SARS PLP yeast inconclusive, Cruzain inh Det 0.2%, MARV entry inh 7%, Cruzain inh noDet 0%, StopGo reporter 5%, RE007 growth inh 6%, LASV entry inh 2% and NS1 function inh 8%.
Screening CC(=O)c1ccc(C(=O)N2CCc3c([nH]c4ccccc34)C2c2ccccn2)s1 (stereo not given) returned SARS PLP yeast -2%, MARV entry inh 17%[46.1 µM], StopGo reporter -10%, RE007 growth inh 11%, LASV entry inh inconclusive and NS1 function inh -6%.
CCCCNCCOCCSc1ccc(Cl)cc1 was read as SARS PLP yeast 1%, Cruzain inh Det 9.5%, MARV entry inh inconclusive, Cruzain inh noDet -5%, StopGo reporter -16%, RE007 growth inh 10%, LASV entry inh -18% and NS1 function inh 3%.
For COc1cc(COCC(O)CN2C(C)CCCC2C)cc(OC)c1OC (stereo not given) the results were SARS PLP yeast -1%, StopGo reporter -10%, RE007 growth inh 3% and NS1 function inh -1%.
Cc1cc(NC(=O)c2n[nH]c(=O)c3ccccc23)ccc1Br was read as SARS PLP yeast -1%, MARV entry inh 13%, StopGo reporter 41%[activator], RE007 growth inh -2%, LASV entry inh 1% and NS1 function inh 5%.
`CC(NC(=O)COc1ccc([N+](=O)[O-])cc1)c1ccccc1` (stereo not given) gave SARS PLP yeast 0%, MARV entry inh 8%, StopGo reporter -17%, RE007 growth inh -1%, LASV entry inh -11% and NS1 function inh 1%.
For O=C(Nc1cc(C(F)(F)F)ccc1N1CCOCC1)c1n[nH]c(=O)c2ccccc12 the results were SARS PLP yeast -2%, Cruzain inh Det -1.4%, MARV entry inh 0%[46.1 µM], Cruzain inh noDet inconclusive, StopGo reporter -7%, RE007 growth inh -24%, LASV entry inh -2% and NS1 function inh -32%.
c1ccc(OCc2nn3c(-c4ccco4)nnc3s2)cc1 was read as SARS PLP yeast inconclusive, Cruzain inh Det -1.2%, MARV entry inh 6%, Cruzain inh noDet -8%, StopGo reporter 3%, RE007 growth inh 17%, LASV entry inh 19% and NS1 function inh -95%.
Screening O=C(NCCC1=CCCCC1)c1cc2c(s1)CS(=O)(=O)C2 returned SARS PLP yeast 5%, Cruzain inh Det 1.3%, MARV entry inh 23%, Cruzain inh noDet -16%, RE007 growth inh 9%, LASV entry inh 0% and NS1 function inh 2%.
CCOC(=O)C1CCN(C(=O)Cn2nc(CC)n3c(cc4occc43)c2=O)CC1 was read as Cruzain inh Det -3.1%, MARV entry inh 14%[46.1 µM], Cruzain inh noDet 2%, StopGo reporter inconclusive and LASV entry inh inconclusive.
For CCN1CCN(C(=O)c2cc(S(=O)(=O)N3CC(C)CC(C)C3)ccc2Cl)CC1 (stereo not given) the results were SARS PLP yeast -3%, MARV entry inh 12%, StopGo reporter 3%, RE007 growth inh 1% and LASV entry inh 5%.
`O=C(COc1ccccc1Br)N1CCN(C(=O)c2cccs2)CC1` gave SARS PLP yeast -6%, MARV entry inh 3%, StopGo reporter -18%, RE007 growth inh -3% and LASV entry inh 4%.
Cc1ccc(C)c(CS(=O)(=O)c2cn(CC(=O)N(C(C)C)C(C)C)c3ccccc23)c1 was read as Cruzain inh Det -2.5%, Cruzain inh noDet 16%, StopGo reporter -6% and LASV entry inh -1%[46.1 µM].
For CC(C)c1ccc(N2C(=O)CC(Sc3ncccn3)C2=O)cc1 (stereo not given) the results were SARS PLP yeast -10%, StopGo reporter -13%, RE007 growth inh -10% and NS1 function inh -2%.
`CNc1ncnc2c1cnn2-c1ccc(C)c(C)c1` gave Cruzain inh Det 0.3%, Cruzain inh noDet -2%, StopGo reporter 14% and LASV entry inh 11%[46.1 µM].
`CCc1ccc(C(=O)COC(=O)c2nn(C)c(=O)c3ccccc23)cc1` gave SARS PLP yeast -2%, MARV entry inh 19%, StopGo reporter -29%, RE007 growth inh -2% and LASV entry inh 8%.
For Cn1nc(C(F)(F)F)cc1Oc1ncc(C(F)(F)F)cc1Cl the results were SARS PLP yeast 0%, MARV entry inh 12%[14.2 µM], StopGo reporter -2%, RE007 growth inh -9% and LASV entry inh 7%.
`O=C(COc1ccc([N+](=O)[O-])cc1)NCc1ccccc1` gave SARS PLP yeast 2%, Cruzain inh Det -2.9%, MARV entry inh 30%, Cruzain inh noDet -1%, StopGo reporter 8%, RE007 growth inh 13%, LASV entry inh inconclusive and NS1 function inh -15%.
Screening O=C(NNC(=O)C1CC=CCC1C(=O)O)c1ccc(Cl)cc1 (stereo not given) returned SARS PLP yeast 6%, MARV entry inh 18%[46.1 µM], StopGo reporter 5%, RE007 growth inh 5% and LASV entry inh 1%.
Screening Cc1nc2ccc(C(=O)N3CCN(Cc4ccccc4)CC3)cc2[nH]1 returned SARS PLP yeast 0%, MARV entry inh 1%[46.1 µM], StopGo reporter 21%, RE007 growth inh 9%, LASV entry inh 2% and NS1 function inh -2%.
`CCOC(=O)c1c(Cl)c(C)nn1-c1nc(OC)cc(OC)n1` gave SARS PLP yeast 13%, Cruzain inh Det -1.1%, MARV entry inh -31%, Cruzain inh noDet 1%, StopGo reporter -16%, RE007 growth inh -8%, LASV entry inh 5% and NS1 function inh -14%.
`O=C(NC(=S)N1CCN(c2ccc(F)cc2)CC1)C12CC3CC(CC(C3)C1)C2` gave SARS PLP yeast -5%, Cruzain inh Det -0.7%, MARV entry inh 1%, Cruzain inh noDet -4%, StopGo reporter inconclusive, RE007 growth inh -10%, LASV entry inh 5% and NS1 function inh 11%.
For CN(C)CCNC(=O)c1ccc2c(c1)NC(=O)C(CS(=O)(=O)Cc1cccc(Br)c1)N2 (stereo not given) the results were Cruzain inh Det -0.4%, Cruzain inh noDet 5%, StopGo reporter -3% and LASV entry inh inconclusive.
`Cc1ccc(-c2n[nH]c(=S)n2/N=C/c2cccs2)cc1` gave SARS PLP yeast 20%, Cruzain inh Det -5.3%, MARV entry inh 2%, Cruzain inh noDet 7%, StopGo reporter -16%, LASV entry inh -18% and NS1 function inh 12%.
Screening O=C(Nc1ccc(F)cc1)c1cccnc1N1CCCCC1 returned SARS PLP yeast 16%, Cruzain inh Det -2.7%, MARV entry inh -3%, Cruzain inh noDet 7%, StopGo reporter 7%, RE007 growth inh 3%, LASV entry inh inconclusive and NS1 function inh -7%.
O=C(NCCCCc1ccccc1)Nc1ccc(F)cc1 was read as SARS PLP yeast -12%, StopGo reporter 46%[activator], RE007 growth inh -6% and NS1 function inh -78%.
For CC(C)CCN1CCN(C2CCN(c3ccc4c(c3)OCO4)CC2)CC1CCO (stereo not given) the results were SARS PLP yeast -2%, MARV entry inh inconclusive, StopGo reporter -12%, RE007 growth inh -4%, LASV entry inh -18%[46.1 µM] and NS1 function inh 1%.
`Cc1cc(C(=O)CN2C(=O)c3ccccc3S2(=O)=O)c(C)n1C(C)C` gave SARS PLP yeast -7%, MARV entry inh 0.5µM*, StopGo reporter inconclusive, RE007 growth inh 18% and LASV entry inh 2µM*.
Screening CC1CCN(C(=O)Cn2cc([N+](=O)[O-])ccc2=O)c2ccccc2S1 (stereo not given) returned SARS PLP yeast -3%, MARV entry inh -11%[46.1 µM], StopGo reporter 0%, RE007 growth inh 1% and LASV entry inh -6%[46.1 µM].
Screening Cn1c(=O)cc(SCC(=O)NCCC2=CCCCC2)c2ccc(Cl)cc21 returned SARS PLP yeast 21%, Cruzain inh Det -0.9%, MARV entry inh inconclusive, Cruzain inh noDet 3%, StopGo reporter -13%, RE007 growth inh 7%, LASV entry inh -8% and NS1 function inh 0%.
Screening CCOC(=O)c1c(C)oc2ncnc(N3CCN(c4ccccc4OC)CC3)c12 returned Cruzain inh Det -4.5%, Cruzain inh noDet 15%, StopGo reporter inconclusive and LASV entry inh 5%[46.1 µM].

Bioassay records: PubChem, National Center for Advancing Translational Sciences (NCATS)

Compounds were not picked by outcome. About 4.8% of those tested had a hit in this group.
